Assay outcomes from PubChem BioAssay.
VACV mCherry inh = inhibitors of vaccinia virus infection (mCherry reporter signal); 310,000 compounds, 0.63% hits; Potency, µM (doses to about 36.5 µM), inactives show at the highest dose activity change, negative = inhibition, usual class: inhibitors; Vaccinia virus mCherry reporter infection, fluorescence; about a quarter of the inactives have no number; active = well fitted inhibition curve with a large enough effect; inconclusive = small, poorly fitted or top-dose-only effect; inactive = no such curve, though single readings can be large or run the other way; tested in A549 cells; also: nearly all actives have a fitted effect of over 35% in size; inactives centre near -10
VACV Venus inh = vaccinia inhibition (Venus reporter); Vaccinia virus Venus reporter expression, fluorescence; Potency, µM (top dose mostly 36.5 µM), inactives show at the top dose activity change, negative = inhibition, usual class: inhibitors; 330,000 compounds, 0.46% hits; AID 720580; active means well fitted inhibition curve with a large enough effect; inconclusive means small, poorly fitted or top-dose-only effect; inactive means no such curve, though single readings can be large or run the other way; tested in A549 cells; also: nearly all actives have a fitted effect of over 30% in size; inactives centre near -10
* marks the source's active call; other numbers are inactive results; i = inactive; ? = inconclusive; · = not tested or not shown. % is scaled to controls: 0 for no effect and ±100 for the full control effect; potency is read from the fitted curve at half-maximal effect.

mol	VACV mCherry inh	VACV Venus inh
Cc1ccc(C(=O)NNC(=O)Cc2cccs2)cc1	-20%	-10%
CC1(C(=O)NS(=O)(=O)c2ccc(Cl)cc2)CCN1C(=O)Cc1cccc2ccccc12 (stereo not given)	-13%	-7%
O=C(NCc1ccc(Cl)cc1)c1cnc(N2CCCCC2)c2ccccc12	-14%	-19%
CCOC(=O)N1CCc2[nH]c3ccc(C)cc3c2C1	i	?
CCC(C)NC(=O)c1ccc2c(c1)N(Cc1cccc(Cl)c1)C(=O)c1ccccc1S2=O (stereo not given)	-12%	-4%
Cc1cc(NC(=O)CSc2nc3ccccc3n2CCC#N)no1	i	-10%
O=C(CN(CCc1ccccc1)C(=O)CNS(=O)(=O)c1ccccc1)NCC1CCCO1 (stereo not given)	·	-20%
O=C(Nc1nc2ccccc2[nH]1)C12CC3CC(CC(C3)C1)C2	·	-29%
Cc1ccc(S(=O)(=O)N2CCN(CC(=O)N/N=C/c3ccc(C)o3)CC2)cc1	-9%	-5%
COC(=O)N1C(=O)[C@](c2ccc(Cl)cc2)(C(C)C)N1C(=O)OC	-19%	?
COc1ccccc1C(C)NS(=O)(=O)c1ccc(Cl)nc1 (stereo not given)	-21%	-12%
Cc1ccc(C(C)NC(=O)Cn2nc(C)c([N+](=O)[O-])c2C)cc1 (stereo not given)	13%	-4%

Later entries:
mol	VACV mCherry inh	VACV Venus inh
CCN(CC)C(=O)c1cccc(NC(=O)c2ccc3c(=O)n4c(nc3c2)CCC4)c1	-15%	-11%
Cc1ccc(N2CC(C(=O)N/N=C/c3cccc([N+](=O)[O-])c3)CC2=O)cc1 (stereo not given)	·	?
C/C(=N/NC(=O)CNC(=O)c1ccccc1F)c1ccc2c(c1)CCCC2	-9%	-2%
CC(=O)c1ccc(OC(NC(=O)Cc2ccccc2)C(Cl)(Cl)Cl)cc1 (stereo not given)	i	0%
O=C(NCC1CCCO1)C(=O)NCC1CCCN1S(=O)(=O)c1ccccc1 (stereo not given)	i	-8%
COc1ccc(Cl)cc1NC(=O)COC(=O)/C=C/c1c(C)nn(C2CCS(=O)(=O)C2)c1Cl (stereo not given)	-13%	-13%
CCOc1ccc(NC(=O)CNC(=O)c2nn(-c3ccc(OC)cc3)c(=O)c3ccccc23)cc1	-5%	-13%
CCCCCCC(=O)c1c(O)n(-c2ccccc2OC)c(=O)[nH]c1=O (tested in a mixture with another compound)	-10%	-2%
O=C(CNC(=O)c1cccs1)NC1=NCCS1	i	0%
CN1C(=O)CC(N2CCN(C(c3ccccc3)c3ccccc3)CC2)C1=O (stereo not given)	-15%	-8%
Nc1cc(=O)[nH]c(=O)n1Cc1ccco1	-6%	-4%
CCS(=O)(=O)Nc1ccc(C2=NN(S(C)(=O)=O)C(c3cccs3)C2)cc1 (stereo not given)	-24%	-9%

Two records picked at random from those above:
mol	VACV mCherry inh	VACV Venus inh
CCC(C)NC(=O)c1ccc2c(c1)N(Cc1cccc(Cl)c1)C(=O)c1ccccc1S2=O (stereo not given)	-12%	-4%
O=C(CN(CCc1ccccc1)C(=O)CNS(=O)(=O)c1ccccc1)NCC1CCCO1 (stereo not given)	·	-20%

New compounds follow
mol	VACV mCherry inh	VACV Venus inh
N#Cc1c(C(F)(F)F)cc(-c2ccccc2)nc1SCC(=O)Nc1sc2c(c1C#N)CCC2	-8%	-4%
Cc1cc(C)nc(NC(=NCCc2c[nH]c3ccccc23)NC(=O)Nc2ccc(Cl)c(Cl)c2)n1	-23%	-11%
CC1CN(C2CCCCC2)c2nc3c(c(=O)n(C)c(=O)n3C)n2C1 (stereo not given)	-16%	1%
Cc1cc2nc(C(C)(C)C)c(Cc3ccsc3)n2c(C)c1Br	11%	10%
CC(Oc1ccccc1)C(=O)Nc1nc(-c2ccccn2)cs1 (stereo not given)	7.1µM*	?
COCCNc1nc2nonc2nc1N1CCCC1c1nccs1 (stereo not given)	i	-4%
CCCCC1(CCO)C(=O)NC(=S)NC1=O	-14%	0%
O=C(NCc1ccc2c(c1)OCO2)c1c(-c2ccsc2)sc2ccccc12	i	-6%
COc1ccc(Cl)cc1N=Cc1c(O)c2ccccc2oc1=O	-24%	-9%
CN1C(=O)c2c(C(=O)Nc3ccc(Oc4ccncc4)cc3)[nH]c(-c3ccccc3)c2C1=O	23%	-9%
Cc1cc(-c2ccc(C)c(S(=O)(=O)N3CCCC(C)C3)c2)on1 (stereo not given)	-2%	-17%
O=C1N[C@@H](Cc2ccccc2)COC(=O)[C@H](Cc2ccc(F)cc2)C/C=C\C[C@@H]1CC(=O)N(CCO)Cc1ccccc1	?	?

Following part.
mol	VACV mCherry inh	VACV Venus inh
CCCc1ccc(-c2ccc(/C=C/C(=O)O)cc2)nc1	-7%	-5%
CC(CC(=O)Nc1nc2ccccc2[nH]1)c1ccccc1 (stereo not given)	·	?
O=C(Nc1cc(NC(=O)c2ccccc2Cl)ccc1Cl)c1ccccc1	-9%	-4%
O=C(Nc1cccc(C(=O)O)c1)/C(=C/c1ccc([N+](=O)[O-])cc1)NC(=O)c1ccccc1	i	-12%
CC(=O)N(\C=C/C=C/C=C1\Sc2ccccc2C1=O)c1ccccc1	-23%	25%
CCn1c(SCC(=O)NCc2ccc3c(c2)OCO3)nnc1-c1c[nH]c2ccccc12	·	-22%
O=C(CSc1nnc(-c2ccco2)n1-c1ccccc1)NCC1CCCO1 (stereo not given)	i	-12%
CC1CCCCN1S(=O)(=O)c1ccc(S(=O)(=O)N(Cc2ccccc2)Cc2ccco2)cc1 (stereo not given)	-15%	-8%
CC=CC1OCC(CC)C(CCC)O1 (stereo not given)	-21%	-16%
COc1cccc(CN(C)CC(=O)NCc2ccc(C)cc2)c1	i	-20%
CC(C)(C)NC(=O)NC(=O)COC(=O)c1cccc(F)c1	-8%	-6%
O=C(NCCC1=CCCCC1)C(=O)NCC(c1ccco1)N1CCN(c2ccccc2)CC1 (stereo not given)	-2%	-2%

(more compounds)
mol	VACV mCherry inh	VACV Venus inh
COc1cc2c(cc1O)C(Cc1ccc(O)cc1)[N+](C)([O-])CC2 (stereo not given)	i	-2%
CCOC(=O)c1sc(NC(=O)c2cc3n(n2)C(C(F)(F)F)CC(c2ccccc2)N3)c(C(=O)OCC)c1C (stereo not given)	-24%	-25%
CCn1c(=O)n(CC)c2cc(N3CCCC3)c(NC(=O)c3ccccc3OC)cc21	?	?
CN(C(=O)c1cccc(NC(=O)Cc2cccc(NC(=O)C3CCN(C(=O)c4ccccc4)CC3)c2)c1)C1CC1	-12%	2%
Cc1ccc(C)c(SCC(=O)OCC(=O)c2ccco2)c1	-1%	-7%
CCCCC[C@@H](C)N1C[C@H](COCc2ccccc2)Oc2cc(N3CCC[C@H]3COC)ccc2S1(=O)=O	-4%	-6%
COCCCN1C(=O)C(O)=C(C(C)=O)C1c1ccccn1 (stereo not given)	-7%	-2%
N#CC1c2ccccc2-n2nncc2CN1S(=O)(=O)c1cc(Cl)cc(Cl)c1 (stereo not given)	i	-30%
CCOc1cccc(CNC(=O)c2ccc(N3CCCC3)c(NC(=O)Nc3ccccc3CC)c2)c1	?	?
Cc1ccc(C)c(N2CCN(C(=O)c3cc(S(=O)(=O)N4CCCC4)c[nH]3)CC2)c1	-4%	-16%
O=C(Nc1nnc(Cc2ccc(Cl)cc2)s1)C1CCCO1 (stereo not given)	i	-6%
Cc1ccc(S(=O)(=O)c2c(Nc3cccc(Cl)c3)sc(C(=O)c3ccc4c(c3)OCO4)c2N)cc1	?	-8%

(next part)
mol	VACV mCherry inh	VACV Venus inh
COc1cc(O)c(C(CCN2CCCC2)c2ccc3c(c2)OCO3)c(OC)c1 (stereo not given)	?	-13%
c1ccc(CCSc2ncnc3nc[nH]c23)cc1	0%	-25%
CN(C)S(=O)(=O)c1cccc(NC(=O)c2ccc3nccnc3c2)c1	-2%	-16%
CCOc1ccc(CCNC(=O)Cn2nc(CC)n3c(cc4sc(CC)cc43)c2=O)cc1OCC	-21%	-23%
N/C(=N\OC(=O)c1ccco1)c1ccccc1	-4%	-3%
Cc1ccc(/C=C/C(=O)OC(C)C(=O)NC2CCCCC2C)o1 (stereo not given)	-11%	-8%
O=C(CNC(=S)N(CCCN1CCOCC1)Cc1cccs1)N1CCCCCC1	-14%	-6%
COC(=O)Cn1c(=NC(=O)CSCC(=O)Nc2cc(C)on2)sc2ccccc21	i	-6%
CCc1ccc(-n2c(=O)c3c(C)c(C(=O)N(C)C)sc3n(CC(=O)Nc3cc(Cl)ccc3C)c2=O)cc1	-5%	-1%
COc1ccc(C(C)=O)cc1CON=C1CSCc2ccccc21	-8%	-10%
CCN(CC)S(=O)(=O)c1ccc(C)c(NC(=O)CSc2nc3ccc(C)cc3[nH]2)c1	-22%	-20%
CCC(=O)Nc1ccc2c(c1)OC[C@@H](C)N(C(=O)c1ccccn1)C[C@@H](C)[C@@H](OC)CN(C)C2=O	-7%	-4%

Other entries.
mol	VACV mCherry inh	VACV Venus inh
COc1cccc(NC(=O)Nc2ccc3c(c2)nnn3C)c1	·	-11%
Cc1cccc(NC(=O)c2nc[nH]c2C(=O)NCCCCNC(=O)c2[nH]cnc2C(=O)Nc2cccc(C)c2)c1	-18%	?
CCn1cc(C(=O)NCCc2ccc(C)cc2)c(=O)c2cc(S(=O)(=O)N3CCCCC3)ccc21	-6%	-17%
Cn1c(=N)n(CC(O)c2ccco2)c2ccccc21 (stereo not given)	-19%	-6%
O=C(Nc1ccccc1)c1cc2ccccc2s1	i	-18%
Cc1ccc(Cl)cc1N1CCN(C(=O)c2ccc(CS(=O)c3ccccc3)o2)CC1 (stereo not given)	-12%	-18%
CNC(=O)c1c(NC(=O)C2=COCCO2)sc2c1CCC(C)C2 (stereo not given)	-2%	-16%
CCOCCCNCC(=O)NCC1CCCCC1	i	-6%
CC(C)c1cccc(C(C)C)c1OC(=O)[C@H]1OC(c2ccc(Br)cc2)=C[C@@H]1c1ccc(Br)cc1	i	-25%
COc1cc(/C=N/Nc2nc(Nc3ccccc3)nc(N3CCCCC3)n2)ccc1OCC(=O)O	-9%	-3%
C=CCSc1nc(C)cc(C(=O)OCC)c1C#N	i	-14%
COc1ccc2[nH]cc(CCNc3ncncc3-c3ccc(N(C)C)cc3)c2c1	12%	4%

Following part:
mol	VACV mCherry inh	VACV Venus inh
CC(=O)OCC1OC(COC(C)=O)(c2ccc(C)cc2)C(OC(C)=O)C1OC(C)=O (stereo not given)	-17%	-14%
c1ccc2c(c1)ccn2-n1ccc2ccccc21	?	-30%
Nc1nc(N)c(S(=O)(=O)c2ccccc2)c(Nc2ccc(Br)cc2)n1	-19%	-14%
C[C@H](NC[C@H](O)CP(=O)(O)Cc1ccccc1)c1ccc(Cl)c(Cl)c1	i	-10%
O=C(OCC(=O)N1CCN(c2ccccc2)CC1)c1cccc([N+](=O)[O-])c1	i	-11%
C=CCNc1ncnc2sc(SC)nc12	-11%	-7%
Cc1cnc(C(=O)N(CC(C)C)c2c(N)n(CC(C)C)c(=O)[nH]c2=O)cn1	-12%	-2%
CCCc1cc(=O)oc2c(C)c(OCC(=O)NCc3ccccn3)ccc12	-13%	-16%
CC(C)C(=O)Nc1sc2c(c1-c1nc3ccccc3[nH]1)CCCC2	·	-13%
C(/Oc1ccccc1)=C1\Nn2c(nnc2-c2cc(-c3ccccc3)n[nH]2)S1	?	?
Cc1ccc2cccc(O)c2n1	-6%	-4%
Cc1ccc(NC(=O)CSc2ccc(C(N)=O)cc2[N+](=O)[O-])cc1C	2%	-2%

Additional records
mol	VACV mCherry inh	VACV Venus inh
Cc1c(C)n2c(SCC(=O)N3CCCCCC3)nnc2[nH]c1=O	-11%	-7%
COc1ccc(-n2nc(C(=O)NCCc3ccc(OC)c(OC)c3)c3c4ccccc4n(C)c3c2=O)cc1Cl	-4%	-3%
CCCCCC(=O)NC(CC(=O)OC)c1ccc2c(c1)OCO2 (stereo not given)	-2%	-3%
Cc1cc(C)c2c(c1)OC(=O)CC2c1ccc2c(c1)OCO2 (stereo not given)	-21%	-14%
CCN(CC)c1ccc(-n2nc3cc(C)c(NC(=O)c4ccccc4C)cc3n2)c(C)c1	i	-10%

A second format for part of the listing above.
Every second line gives: VACV mCherry inh | VACV Venus inh
- O=C(OCC(=O)N1CCN(c2ccccc2)CC1)c1cccc([N+](=O)[O-])c1
 : i | -11%
- N#Cc1c(C(F)(F)F)cc(-c2ccccc2)nc1SCC(=O)Nc1sc2c(c1C#N)CCC2
 : -8% | -4%
- COC(=O)Cn1c(=NC(=O)CSCC(=O)Nc2cc(C)on2)sc2ccccc21
 : i | -6%
- O=C1N[C@@H](Cc2ccccc2)COC(=O)[C@H](Cc2ccc(F)cc2)C/C=C\C[C@@H]1CC(=O)N(CCO)Cc1ccccc1
 : ? | ?
- CC(C)(C)NC(=O)NC(=O)COC(=O)c1cccc(F)c1
 : -8% | -6%
- CCCCC[C@@H](C)N1C[C@H](COCc2ccccc2)Oc2cc(N3CCC[C@H]3COC)ccc2S1(=O)=O
 : -4% | -6%
- Cc1ccc(C)c(N2CCN(C(=O)c3cc(S(=O)(=O)N4CCCC4)c[nH]3)CC2)c1
 : -4% | -16%

Random draw from the library. Share with any hit: about 0.87%.
